miR-21 reporter – miR-21 reporter, rising signal; HeLa miR-21 FLuc reporter, luciferase, 48 h; Potency, µM (doses to about 38.3 µM), for the others: at the top dose reporter change, positive = more light; 340,000 tested, under 10 active; AID 2288; active = well fitted rising curve with a large enough effect; inconclusive = small, poorly fitted or top-dose-only effect; inactive = no such curve, though single readings can be large or run the other way;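 also: % of control where 0% means no effect; miR-21 action dims this reporter so a rising signal means less miR-21 action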
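Compounds were titrated across several concentrations (up to approximately 40 uM) and incubated 48 hours with HeLa miR-21-FLuc reporter cells (miR-21 target sequence downstream of FLuc, endogenous miR-21). Readout was firefly luciferase luminescence after lytic detection reagent.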
GLA inh pH 4.5 – inhibitors of human alpha-galactosidase A at pH 4.5; P06280; purified enzyme, 4-MU-alpha-Gal fluorescence, pH 4.5; activity change, negative = inhibition, % at 105 µM; 230,000 tested, under 10 active; inconclusive = small, poorly fitted or top-dose-only inhibition, or a rising curve; inactive = flat fitted curve, though single readings scatter; no compound was filed as active;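 also: 0% = full activity with enzyme and -100% = basal without enzyme; dose as in the result columns while the protocol names 77 µM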
Target sequence (P06280 whole entry, looked up): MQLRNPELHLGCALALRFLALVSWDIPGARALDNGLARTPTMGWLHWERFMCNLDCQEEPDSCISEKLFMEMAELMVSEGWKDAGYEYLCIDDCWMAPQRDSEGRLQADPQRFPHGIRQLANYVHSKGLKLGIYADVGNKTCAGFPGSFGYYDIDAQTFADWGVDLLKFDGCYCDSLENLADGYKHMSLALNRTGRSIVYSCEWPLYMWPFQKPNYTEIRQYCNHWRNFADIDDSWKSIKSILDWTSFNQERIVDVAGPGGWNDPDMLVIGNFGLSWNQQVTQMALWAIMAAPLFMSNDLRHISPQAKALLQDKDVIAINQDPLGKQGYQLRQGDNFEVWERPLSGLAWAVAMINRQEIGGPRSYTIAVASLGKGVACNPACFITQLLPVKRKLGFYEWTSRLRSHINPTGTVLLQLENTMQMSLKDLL
Rango-impB inh – Rango-importin beta binding inhibition. Potency, µM (highest dose often 92.2 µM), without a hit: top-dose inhibition of complex formation. Q14974. actives 0.031% (n = 340,000). Rango CFP/YFP FRET sensor + importin beta, 45 min; active = rising FRET ratio curve, often small or poorly fitted; inconclusive = mostly compound fluorescence or quenching in the first reads; inactive = flat curves in all reads;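 also: potency is read from the fitted curve at half-maximal effect; 0% = DMSO wells and 100% = buffer wells lacking importin beta; nearly all actives have a fitted effect of over 15% in size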
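FRET biosensor (snurportin 1 IBB flanked by EYFP and cerulean), 50 nM, with compound 5 min, then 0.125 microM importin beta in PBS, 1 mM DTT, 0.02% Tween-20, 0.1% BSA. CFP/YFP ratio read after 45 min at room temperature; pre-read flags interference.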
Rango release inh – inhibitors of RanGTP-induced Rango-importin beta complex dissociation | O95149+P62826 | Biochemical FRET Rango-importin beta, RanGTP-induced dissociation | Potency, µM (series often up to 46.1 µM), for inactives: at the highest dose activity change, negative = inhibition | actives 0.071% (n = 340,000) | AID 540253; active means falling FRET ratio curve, often poorly fitted, with flat reads before Ran was added; inconclusive means other falling curves, or compound fluorescence or quenching; inactive means flat or rising ratio curve;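 also: potency is read from the fitted curve at half-maximal effect; % of control where 0% means no effect; nearly all actives have a fitted effect of over 45% in size; -100% = wells without RanGTP and RCC1; the record marks most hits as doubtful in a second field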
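Quantitative HTS using a FRET biosensor: 0.1 uM Rango, 0.25 uM importin beta, 0.6 uM Ran, 2 mM GTP, 0.2 uM RCC1 final, PBS with DTT, Tween-20 and BSA. Post-read taken 45 min after Ran addition.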
* marks the source's active call; other numbers are inactive results; ? = inconclusive; . = not tested or not shown; [ ] = remark or other dose. The list is partial; rates above refer to the full screens.

SMILES	miR-21 reporter	GLA inh pH 4.5	Rango-impB inh	Rango release inh
CC(Oc1ccc(Cl)cc1)C(=O)Nc1ccc(S(=O)(=O)N2CCOCC2)cc1 (centres undefined)	15.9%	.	-1.8%	-0.6%
COc1ccc(N/C=C\C(=O)c2ccc(C)cc2)cc1OC	-67.2%	6.2	?	?
CCC(=O)Nc1c(C(=O)Nc2ccc3c(c2)OCCO3)oc2ccccc12	-46.9%	-25.2	-8.4%	18.6%
CCOC(=O)/C(C(=O)Nc1ccc(Br)cc1)=C1/NC(C)(C)Cc2ccccc21	-26.6%	-10.8	-0.2%	0.0%
COc1ccc(N(CC(=O)NCCC2=CCCCC2)S(=O)(=O)c2ccc(C)cc2)cc1OC	-8.8%	5.8	0.5%	39.9%
CC(C)C(NC(=O)c1ccccc1F)C(=O)Nc1ccc2c(c1)OCO2 (centres undefined)	-8.7%	-1.7	-0.7%	5.6%
CCNC(=O)Cn1cnc2c1c(=O)n(C)c(=O)n2C	-6.4%	6.6	-0.5%	17.4%
NS(=O)(=O)c1ccc(NC2=CC(c3ccc(F)cc3)N(c3ccc(S(N)(=O)=O)cc3)C2=O)cc1 (centres undefined)	1.8%	-0.5	-2.9%	23.7%
CCn1cc(-c2ccccc2)c(C(=O)O)c1-c1ccc(OC)cc1	.	.	-0.9%	-14.6%
COC(=O)/C=C/S(=O)(=O)c1ccc(NC(C)=O)cc1	?	-6.0	1.0%	7.6%
COc1cc(-n2nc(C)c3c2OC(N)=C(C#N)C3c2ccccc2)c(Cl)c(Br)c1O (centres undefined)	18.9%	-2.4	?	?
COc1ccc(NC(=O)CN(C)S(=O)(=O)c2ccccc2)cc1	-24.5%	-5.3	-0.4%	-6.8%
COc1ccc(Cn2c(C3CCCCC3)nc3c(c(=O)c4ccccc4n3C)c2=O)cc1	-9.9%	?	-1.1%	2.2%
O=C1c2ccccc2C(=O)C1Cc1cccc2ccccc12	-12.0%	-10.5	?	-7.4%
CCn1c(=N)c(S(=O)(=O)c2ccc(Cl)cc2)cc2c(=O)n3ccccc3nc21	2.8%	6.0	.	.
CC(C)Cn1c(-c2ccco2)csc1=Nc1cccnc1	-6.5%	-0.1	0.0%	1.5%
Cc1cccc(-n2nc([N+](=O)[O-])c(=NC3CCN(Cc4ccccc4)CC3)n2O)c1	14.5%	6.7	-1.5%	-0.5%
O=C(CSc1nnc(-c2ccccc2F)n1C1CC1)NC(=O)c1cccc([N+](=O)[O-])c1	-0.2%	1.1	-1.4%	8.7%
CC(NC(=S)NC1CCCCC1)c1ccc(C(C)(C)C)cc1 (centres undefined)	0.0%	.	2.4%	-1.2%
CCOc1ccc(-n2ccnc2SCC(=O)Nc2cc(C)on2)cc1	7.6%	-6.1[21.1 µM]	0.6%	4.0%
CCCCn1c(/N=C/c2ccccc2NS(=O)(=O)c2ccc(C)cc2)nc2ccccc21	?	-4.4	?	?
Cc1ccccc1OCC(=O)NCCNC(=O)c1cccnc1	0.0%	.	2.6%	-2.3%
CC(C)NC(=O)c1ccc(N(Cc2ccccc2)S(C)(=O)=O)cc1	-1.1%	.	-0.9%	-18.7%
COc1ccccc1N=Nc1c(C)noc1C	-1.2%	-3.3	-0.7%	0.3%
CN1C(=O)[C@H]2[C@@H](/C=C/c3ccccc3)N3C(=O)CN(Cc4ccc(-c5ccccc5)cc4)C(=O)[C@@]3(C)[C@H]2C1=O	.	.	0.2%	-6.7%

Molecules shown so far containing bromine:
SMILES	miR-21 reporter	GLA inh pH 4.5	Rango-impB inh	Rango release inh
CCOC(=O)/C(C(=O)Nc1ccc(Br)cc1)=C1/NC(C)(C)Cc2ccccc21	-26.6%	-10.8	-0.2%	0.0%
COc1cc(-n2nc(C)c3c2OC(N)=C(C#N)C3c2ccccc2)c(Cl)c(Br)c1O (centres undefined)	18.9%	-2.4	?	?

Next section:
SMILES	miR-21 reporter	GLA inh pH 4.5	Rango-impB inh	Rango release inh
CCN(CC)S(=O)(=O)c1cc(NC(=S)NC(=O)C2CCCC2)ccc1C	.	.	-3.4%	-11.1%
COC(=O)CNC(=O)c1ccccc1[N+](=O)[O-]	.	.	1.0%	8.0%
COc1ccc(CCN2CC(C(=O)Nc3cc(S(C)(=O)=O)ccc3Cl)CC2=O)cc1OC (centres undefined)	.	.	-1.4%	17.1%
CN(C)/C=C1\C(=O)N(c2ccc(F)cc2F)C(c2cccnc2)S1(=O)=O (centres undefined)	-1.2%	0.4	0.5%	0.4%
Cc1ccccc1N(CC(=O)Nc1ccccc1C(=O)NCc1ccco1)S(=O)(=O)c1ccccc1	?	-27.6	0.7%	0.6%
O=C(OCc1nnc(-c2ccccc2)o1)c1cc(Cl)ccc1[N+](=O)[O-]	-15.1%	-0.5	?	11.5%
CCC(C)(C)NC(=O)C(c1ccc(OC)cc1)N(C(=O)CCC(=O)Nc1cc(C)on1)c1cccc(OC)c1 (centres undefined)	3.0%	.	0.5%	-6.6%
O=C(COC(=O)C1CC2CCCC(C1)C2=O)NC(=O)c1ccc(OC(F)F)cc1 (centres undefined)	-0.6%	.	0.3%	-15.1%
Cc1cccc(C)c1C(=O)N[C@@H](Cc1ccccc1)C(=O)O	-0.2%	1.5	0.5%	0.0%
O=C(Cc1ccc(F)cc1)NCCc1ccccc1	-20.7%	-0.5	-3.2%	8.0%
CC(C)Nc1nc(SCC(N)=O)nc(N2CCOCC2)n1	-0.8%	5.7	0.0%	-11.3%
Cc1cc(C)c2[nH]c(=O)c(CN(Cc3nnnn3C3CCCC3)C3CCCCC3)cc2c1	-0.9%	-6.3	-4.1%	-7.8%
O=C(COc1ccccc1)OCc1cc2ccccc2[nH]c1=O	-0.3%	1.8	-0.9%	-7.4%
CCc1nn(CC(=O)NCCc2ccc(S(N)(=O)=O)cc2)c(=O)c2cc3sccc3n12	1.1%	.	0.1%	-8.3%
O=C(CN1CCN(c2ccccc2)CC1)c1ccc2cc[nH]c2c1	-5.2%	-3.4	1.1%	9.2%
CC(OC(=O)Cc1c(F)cccc1Cl)C(=O)NC1CCCCC1C (centres undefined)	.	.	-0.6%	-14.5%
Cc1occc1C(=O)Nc1ccc(S(N)(=O)=O)cc1	3.9%	2.3	0.3%	-7.9%
COc1ccc(-c2csc(NC(=O)c3ccc(S(=O)(=O)N4CCc5ccccc5C4)cc3)n2)c(OC)c1	9.9%	0.3	?	5.8%
O=C(Nc1scc(-c2ccc(Br)cc2)c1C(=O)O)c1ccccc1F	.	.	2.7%	12.9%
CC1(C)C(=O)NC(=O)N1Cc1ccccc1	.	.	-2.3%	1.4%
CN(C)c1ccc(/C=N/N(CCC#N)C2=NS(=O)(=O)c3ccccc32)cc1	-1.7%	.	8.1%	?
CCOC(=O)c1c(OCCO)nn(-c2ccccc2)c1N	-6.2%	5.6	3.5%	43.8%
O=C(NCc1ccccn1)c1cccc(S(=O)(=O)NCc2ccccc2)c1	.	.	-0.2%	-15.6%
CN1C=CC=C/C1=C1\SC(=S)N(CC(=O)O)C1=O	-2.7%	-12.5	?	-16.5%
CC(C)(CCl)C(=O)Nc1ccnc(-c2ccncc2)n1	-0.1%	-1.5	3.4%	8.6%

In a second layout: entries from further up
Molecule | miR-21 reporter | GLA inh pH 4.5 | Rango-impB inh | Rango release inh
CC(C)(CCl)C(=O)Nc1ccnc(-c2ccncc2)n1 | -0.1% | -1.5 | 3.4% | 8.6%
O=C(NCc1ccccn1)c1cccc(S(=O)(=O)NCc2ccccc2)c1 | . | . | -0.2% | -15.6%
Cc1cccc(C)c1C(=O)N[C@@H](Cc1ccccc1)C(=O)O | -0.2% | 1.5 | 0.5% | 0.0%
Cc1occc1C(=O)Nc1ccc(S(N)(=O)=O)cc1 | 3.9% | 2.3 | 0.3% | -7.9%
CC1(C)C(=O)NC(=O)N1Cc1ccccc1 | . | . | -2.3% | 1.4%
Cc1cc(C)c2[nH]c(=O)c(CN(Cc3nnnn3C3CCCC3)C3CCCCC3)cc2c1 | -0.9% | -6.3 | -4.1% | -7.8%
CN(C)c1ccc(/C=N/N(CCC#N)C2=NS(=O)(=O)c3ccccc32)cc1 | -1.7% | . | 8.1% | ?

(continued)
SMILES	miR-21 reporter	GLA inh pH 4.5	Rango-impB inh	Rango release inh
NC(=O)CSc1cn(Cc2cccc(F)c2)c2ccccc12	23.2%	-5.4	3.8%	38.6%
COc1ccc(/C=C(\C#N)c2nc3ccccc3[nH]2)cc1O	-46.2%	.	?	?
CNc1nc(NN)nc(Nc2ccccc2)n1	-15.0%	.	2.8%	-6.7%
Cc1[nH]c2ccccc2c1C(=O)CSc1nnc(C2CC2)o1	.	.	-0.5%	17.5%
O=C(NC1CCSC1=O)c1cccc(C(=O)NC2CCSC2=O)c1 (centres undefined)	-2.0%	-1.4	-0.7%	-18.8%
CC(C)(C)c1ccc(O)c(N)c1	-5.9%	0.3	.	.
COP(=O)(OC)C(Nc1ccc(C)cc1)c1ccc([N+](=O)[O-])cc1 (centres undefined)	-57.5%	0.4	-0.4%	6.8%
CCN(CC)CCNCc1ccc(OCc2ccc(Cl)nc2)c(OC)c1	-29.9%	9.5	?	-21.2%
Cc1ccc(C(=O)n2ncn(C)c2=S)cc1	-8.0%	4.7	-0.7%	12.1%
COc1ccc(CN2C3CCCC2CC(NC(=O)c2cccc(F)c2)C3)cc1 (centres undefined)	-1.8%	.	1.1%	19.6%
O=C(OCC(=O)N1CCCC1=O)c1nc(Cl)ccc1Cl	.	.	2.0%	-9.0%
CCC(C)NC(=O)/C(=C/c1ccco1)c1ccccc1 (centres undefined)	-6.3%	2.6	-0.3%	-15.1%
CN1CCN(NC(=O)C2CC2)CC1	-1.5%	7.2	?	1.8%
O=C1CCCN1CCC1CCN(C2CC(=O)N(c3ccc(Cl)cc3)C2=O)CC1 (centres undefined)	-1.7%	9.2	-0.5%	7.3%
CC(C)(C)C(=O)N1CCC(O)(CS(=O)(=O)Cc2ccccc2Cl)CC1	-0.6%	8.7	-5.7%	1.9%
COc1ccc(-n2nc3c(c2NC(=O)C(C)C)CSC3)cc1	0.9%	.	0.1%	6.9%
O=C(Nc1cccc(N2C(=O)C3CCCCC3C2=O)c1)c1ccccc1 (centres undefined)	-2.8%	.	0.2%	-8.6%
Cc1c(C=O)c(Cl)n(C)c(=O)c1C#N	-0.5%	2.6	-2.6%	-10.7%
O=C(NCc1ccncc1)c1cc(F)c(F)cc1Cl	1.8%	3.0	2.8%	1.7%
O=C(c1ccc(Cl)c(S(=O)(=O)N2CCCC2)c1)N1CCCC(C(F)(F)F)C1 (centres undefined)	.	.	-0.5%	10.7%
O=c1oc2ccccc2n1Cc1cccc(Cl)c1	-17.2%	-0.3	-0.2%	1.9%
CCOc1ccc(CN2CCN(CC3CC3)CC2CCO)cc1 (centres undefined)	0.5%	.	5.9%	1.0%
CCN(CC)c1ccc(N2C(=O)CSC2=S)cc1	-6.9%	-5.1	-0.1%	-0.2%
CCOC(=O)c1c(C)[nH]c(C)c1C(=O)CSc1nnc(-c2cc(OC)c(OC)c(OC)c2)o1	-1.1%	-27.3	4.0%	7.3%
CN(c1ccccc1)c1nc(N)c([N+](=O)[O-])c(N2CCCC2)n1	-59.8%	.	0.2%	-9.0%

Assay outcomes as filed in PubChem.
